AF4-AF9 inh = blocks AF4 peptide binding to human AF9; P42568; AlphaScreen, biotin-AF4 peptide binding to FLAG-AF9; inhibition, % at 10 µM; 0.47% of 350,000 active;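 active = every replicate reaching a set inhibition limit, whatever the replicate mean, cut at about 25% in these data; inconclusive = mean inhibition reaches that limit but some replicates miss it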;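 note: 0% = plate neutral control median and 100% = total signal loss; the record names both 10 and 1 µM as test concentration; the first replicate is given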
Target sequence (P42568 whole entry, looked up): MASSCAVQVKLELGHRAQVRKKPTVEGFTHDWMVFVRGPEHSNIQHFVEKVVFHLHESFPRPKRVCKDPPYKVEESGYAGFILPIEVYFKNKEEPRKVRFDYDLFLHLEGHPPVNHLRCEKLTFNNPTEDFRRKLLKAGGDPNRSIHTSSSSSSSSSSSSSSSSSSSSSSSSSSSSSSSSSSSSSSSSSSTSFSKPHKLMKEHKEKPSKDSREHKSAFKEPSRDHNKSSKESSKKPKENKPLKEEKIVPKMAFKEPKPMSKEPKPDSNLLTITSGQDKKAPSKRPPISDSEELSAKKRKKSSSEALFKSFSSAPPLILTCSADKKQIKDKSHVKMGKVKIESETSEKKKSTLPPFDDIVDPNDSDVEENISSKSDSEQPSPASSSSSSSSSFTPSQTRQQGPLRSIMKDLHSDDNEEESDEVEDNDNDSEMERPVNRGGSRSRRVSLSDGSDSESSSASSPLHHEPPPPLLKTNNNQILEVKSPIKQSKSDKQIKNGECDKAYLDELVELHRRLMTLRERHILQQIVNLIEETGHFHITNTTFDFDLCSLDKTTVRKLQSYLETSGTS
ALR H2O2 inh = blocks human ALR sulfhydryl oxidase activity | 3.8% of 290,000 active | inhibition, % (no concentration beside the values) | purified ALR, DTT oxidation, H2O2 HRP-luminol luminescence | P55789 | AID 485317;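 active = mean and each replicate at 75% or more; inconclusive = only one of the two met; inactive = neither met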;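 note: stock transfer was 7.5 nL into about 7.5 µL; 0% = neutral wells and 100% = wells with inactivated enzyme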
Target sequence (P55789 whole entry, looked up): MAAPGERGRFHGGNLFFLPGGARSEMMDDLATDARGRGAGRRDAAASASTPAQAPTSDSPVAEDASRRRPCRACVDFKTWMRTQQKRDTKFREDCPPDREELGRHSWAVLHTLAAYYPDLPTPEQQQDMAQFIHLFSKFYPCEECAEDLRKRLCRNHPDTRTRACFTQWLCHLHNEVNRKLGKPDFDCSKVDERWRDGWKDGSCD
RanGTP-Impb inh = inhibitors of RanGTP-importin-beta interaction, primary screen, biochemical, FRET, CFP-Ran, YFP-importin-beta, homogeneous | 1.1% of 300,000 active | cell-free CFP-Ran/YFP-importin-beta FRET ratio | inhibition, % (concentration not given with the values);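 active = most replicates above 15%; inconclusive = exactly half above 15%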;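 note: 0% = DMSO wells and 100% = Ran loaded with GDP instead of GTP; wells of about 40 µL received 100 nL stock; the first replicate is given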
Beta apoptosis = beta cell apoptosis inhibition | INS-1E cytokine-induced death, ATP luminescence, 48 h; percent of positive-control rescue, neutral wells zero | protection from apoptosis, % (concentration not given with the values) | 0.8% of 300,000 active | AID 435005;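 active = all replicates at 75% or more, or half of them and the mean; inconclusive = half reach 75% but not the mean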;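 note: 0% = cytokine-treated negative control wells and 100% = positive control rescue; higher means more ATP so stronger rescue from cytokine killing; wells of about 40 µL received 100 nL stock; the first replicate is given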
T cruzi inh = T. cruzi replication inhibition; T. cruzi beta-gal in NIH3T3, luminescence, 90 h; inhibition, % (concentration not given with the values); 1.4% of 300,000 active; AID 1885;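 active = mean inhibition across valid replicates above about 55%, limit read from the data; inconclusive = mean below that limit but half or more replicates reach it; inactive = mean below it, under half of replicates reach it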;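 note: signal also drops with host cell toxicity which is not excluded here; 0% = plate median of DMSO wells and 100% = zero luminescence signal; higher percent means less beta-gal luminescence so fewer parasites; stock transfer was 50 nL into about 50 µL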
Calb FLC = affects C. albicans growth with fluconazole | C. albicans CaCi-2 (fluconazole-resistant clinical isolate) + fluconazole, Alamar Blue growth, 48 h | growth inhibition, % (test concentration not listed) | 0.57% of 300,000 active | AID 1979;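 active = most replicates above 75%; inconclusive = exactly half above 75%; inactive = most below 75%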;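 note: all wells also contain fluconazole at 8 µg/ml as a sub-toxic cotreatment; 0% = median of DMSO wells and 100% = median of geldanamycin control wells; wells of about 8 µL received 7.5 nL stock; the first replicate is given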
FGF22 binding = binders of recombinant human FGF22 by thermal shift; SYPRO orange fluorescence; percent of sucrose octasulfate shift, DMSO zero; AID 651658; 1.5% of 340,000 active; calls only at 9.99 µM; Q9HCT0;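 active = melting point raised past a set limit in the mean and every replicate; inconclusive = no clear call; three in four hits are not shown here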
Target sequence (Q9HCT0 whole entry, looked up): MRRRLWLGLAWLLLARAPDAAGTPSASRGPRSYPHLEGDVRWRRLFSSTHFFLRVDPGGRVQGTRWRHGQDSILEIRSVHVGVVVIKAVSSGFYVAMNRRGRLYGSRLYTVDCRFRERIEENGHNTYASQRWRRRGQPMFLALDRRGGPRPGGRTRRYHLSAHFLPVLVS
Ecoli rRNA inh = inhibits bacterial ribosomal RNA function over humanized ribosomes; AID 720706; GFP signal change (wild-type ribosome), % (concentration not given with the values); 1.6% of 350,000 active; E. coli WT GFP vs humanized-ribosome RFP mutants, fluorescence, 24 h; active compounds read low; DMSO median 0, no signal -100;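 active = significant combined selectivity score with lowered wild-type GFP, culture density cut under 30%, mutant RFP and density less affected; inactive = any of these conditions unmet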; note: one replicate is shown; some compounds called inactive have numbers as strong as hits
Ecoli rRNA inh OD600 = further read-out of Ecoli rRNA inh, marked with its call; OD600 change, %; measured here: OD600 growth;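 optical density of the mix in the first replicate; 0 = DMSO median and -100 = no signal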
Ecoli rRNA inh RFP = further read-out of Ecoli rRNA inh, marked with its call; RFP signal change, %; measured here: RFP humanized mutant strains;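 first replicate; 0 = DMSO median and -100 = no signal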
The depositor's hits bear a star; i = inactive; ? = inconclusive; nt = no result given.

SMILES,AF4-AF9 inh,ALR H2O2 inh,RanGTP-Impb inh,Beta apoptosis,T cruzi inh,Calb FLC,FGF22 binding,Ecoli rRNA inh,Ecoli rRNA inh OD600,Ecoli rRNA inh RFP
O=C(Nc1cccc(NC(=O)c2ccc3c(c2)OCO3)c1)c1ccccc1,-1.3,3,-2.5,-3,19,1,i,3,5,2.0
Cc1ccc(C(C(=O)NC2CCCCC2)N(C(=O)Cc2c[nH]c3ccccc23)c2ccccc2C)o1 (centres undefined),nt,1,?,-2,46,?,nt,nt,nt,nt
Oc1cccc2c(NC(=S)Nc3ccc(OC(F)F)cc3)cccc12,16,19,-2.9,-9,-4,-10,i,-54,-70,15
COc1ccc(CC(=O)Nc2cccc(S(=O)(=O)N3CCOCC3)c2)cc1OC,-1.9,-2,nt,19,nt,nt,i,nt,nt,nt
CC(C)Nc1nc(NC(C)C)nc(OCCOC(=O)Nc2ccccc2)n1,nt,29,7.3,8,28,10,nt,nt,nt,nt
COc1ccc(C(=O)Nc2ccc(N3CCCC3)cc2)cc1OC,5.5,99*,-4.0,13,19,2,i,-6,12,0.1
COCc1cccc(NC(=O)CCc2ccccc2)c1,0.4,-1,-3.0,-8,-6,-4,nt,-1,6,-3.5
Cc1cccc(C)c1-n1ncc(C(=O)NC2CCCC2)c1C1CCNCC1,-0.9,-2,0.4,-5,-12,8,i,5,11,0.1
COc1cccc(/C=C/c2ccc3cccc(O)c3n2)c1OC,10,-2,1.4,51,41,4,i,-48,-75,-27
COc1ccc(-c2csc(N(CCCN3CCOCC3)C(=O)CCl)n2)cc1,9.3,-33,1.2,-11,5,-2,nt,3,3,3.4
COc1cccc(/C=N/NC(=O)c2c(C)nc3ccc(Br)cn23)c1,0.5,-5,3.2,-7,3,-4,i,5,8,0.6
CN(C)c1nc(=NCc2ccco2)ss1,nt,53,-3.1,37,42,nt,nt,nt,nt,nt
Cc1cc(/C=C2\C(=N)N3N=C(CC(=O)N4CCOCC4)SC3=NC2=O)c(C)n1-c1ccccc1,0.8,13,?,nt,7,-2,i,-3,-3,9.6
O=C1c2ccccc2C(O)N1CCN1CCOCC1 (centres undefined),1.4,-20,-1.7,1,-21,0,i,1,5,-0.6
CC(C)[C@H]1C=C(C(=O)O)O[C@@H](OCCCCO)C1,-1.0,nt,2.2,-6,-9,-5,i,6,26,-7.4
COc1ccc(F)cc1S(=O)(=O)n1nc(C)cc1C,-1.2,3,-0.2,-3,-10,4,i,5,11,-1.9
Cc1ccc(CS(=O)(=O)Cc2ccc(C(=O)NCc3cccs3)o2)cc1,-7.9,1,3.1,-1,9,15,i,3,0,-0.1
CCCC(C(=O)NCc1ccco1)N(Cc1ccco1)C(=O)CNS(=O)(=O)c1ccccc1 (centres undefined),-0.4,-1,2.8,-5,11,12,i,-1,-1,2.9
O=C(Nc1ccc(C(F)(F)F)cc1)c1ccc2nc[nH]c2c1,-0.7,0,0.2,4,0,?,i,-57,-81,-21
O=S(=O)(c1cnc[nH]1)N1CCN(C(c2ccc(F)cc2)c2ccc(F)cc2)CC1,-2.9,-2,-1.7,3,0,8,i,-8,-20,-0.7
CCOc1ccc(NS(=O)(=O)c2ccc(C(=O)NCC(c3ccc(OC)cc3)N3CCCC3)cc2)cc1 (centres undefined),13,1,?,1,17,2,i,-26,-28,0.8
Cc1[nH]c(=O)[nH]c(=O)c1/C=N/NC(=O)CCNC(=O)OC(C)(C)C,3.6,1,-1.0,-1,-3,0,i,19,6,-0.9
Cc1nnc2c(NCC(C)c3ccccc3)nc3ccccc3n12 (centres undefined),-7.6,-4,1.6,7,-2,6,i,13,19,2.5
O=C(NNC(=O)c1ccc(Cl)s1)c1csc(N2CCOCC2)n1,-1.6,0,-2.6,-3,4,-6,i,4,10,0.0
O=C(COc1ccccc1/C=C\c1[nH]c(=O)[nH]c(=O)c1[N+](=O)[O-])Nc1ccccc1,-3.1,34,-0.3,-2,55*,-13,nt,-31*,-19*,-5.8*
O=C(COC(=O)c1ccc(NS(=O)(=O)c2ccc3c(c2)OCCO3)cc1)NCC1CCCO1 (centres undefined),nt,-14,4.2,0,-4,-1,nt,nt,nt,nt
CCn1nnnc1-c1ccc(OC)c(S(=O)(=O)Nc2ccc(C(=O)OC)cc2)c1,nt,-4,-5.3,4,19,-5,nt,1,-4,-0.7
Nc1ccc(C(=O)N2CCN(S(=O)(=O)/C=C/c3ccccc3)CC2)cc1[N+](=O)[O-],0.5,1,3.8,4,-5,-6,i,1,2,0.2
CC1CCCC(C)N1/N=C/c1ccc(C(=O)O)cc1 (centres undefined),-1.7,4,-3.6,-6,-8,-10,i,14,10,1.2
Cc1c(C(=O)NNC(=S)Nc2ccc(S(N)(=O)=O)cc2)oc2ccccc12,0.8,99*,0.7,-2,7,4,i,-34,-41,-10
COC(=O)c1cc(NS(=O)(=O)c2ccc(C(C)C)cc2)ccc1N1CCOCC1,2.0,4,-3.6,-2,17,-1,i,-26,-13,-0.8
Cc1ccccc1C(=O)NCC(=O)c1ccccc1,-1.7,-8,1.8,0,33,2,i,4,7,0.9
Cc1cc(C)cc(NC(=O)NC2CCN(CC(=O)Nc3cccc(Cl)c3C)CC2)c1,-20,-3,1.3,2,12,-5,i,8,5,-3.2
CCN1CCN(Cc2c(O)ccc3c2O/C(=C\C=C\c2ccccc2)C3=O)CC1,18,-2,-320,5,8,?,i,4,-2,6.3
CCCS(=O)(=O)NCCc1csc(-c2ccc(OC)c(OC)c2)n1,-3.1,0,-1.4,1,-1,-8,i,0,8,-1.5
N#CCC(=O)NNC(=S)NC(=O)C(c1ccccc1)c1ccccc1,1.6,16,-0.2,5,-3,-6,i,-41,-36,-10
COCCOC(=O)C1=C(C)NC(=O)NC1c1ccco1 (centres undefined),-2.5,-5,-4.7,3,-15,0,i,17,1,63
CCOC(=O)c1cc[nH]c1C,-2.7,-10,-1.3,-3,-13,0,i,4,6,5.1
COc1cccc(-c2nc(NCc3cccnc3)c3ccccc3n2)c1O,-7.5,12,1.3,2,20,-9,i,-2,0,-0.3
O=C(NCCCN1CCCCCC1)C1CCCN(S(=O)(=O)c2cccc3nsnc23)C1 (centres undefined),3.9,-5,nt,-4,4,15,i,11,12,3.1
CCn1c(CNC(=O)c2ccccc2F)cc2cc(C)ccc21,-0.9,6,?,-4,7,-29,i,-20*,-5.8*,1.5*
COc1ccc(CC(=O)Nc2ccc3c(c2)C(=O)N(CCC(=O)O)C3=O)cc1,0.7,6,-1.6,-6,-8,6,i,4,5,0.5
COc1ccc(CCN2CC(C(=O)O)CC2=O)cc1OC (centres undefined),nt,-11,2.9,3,3,6,nt,nt,nt,nt
COc1ccc(NC(=O)Nc2nnc(-c3ccccc3SCc3ccccc3)s2)cc1,nt,-12,-1.1,9,17,10,nt,nt,nt,nt
CCS(=O)(=O)Nc1ccc(Cc2ccncc2)cc1,nt,4,-2.9,4,0,8,nt,nt,nt,nt

Arranged by the number under ALR H2O2 inh (rising): 3 of the compounds above
Compound,AF4-AF9 inh,ALR H2O2 inh,RanGTP-Impb inh,FGF22 binding,Ecoli rRNA inh,Ecoli rRNA inh OD600,Ecoli rRNA inh RFP
COc1ccc(CCN2CC(C(=O)O)CC2=O)cc1OC (centres undefined),nt,-11,2.9,nt,nt,nt,nt
CCOC(=O)c1cc[nH]c1C,-2.7,-10,-1.3,i,4,6,5.1
O=S(=O)(c1cnc[nH]1)N1CCN(C(c2ccc(F)cc2)c2ccc(F)cc2)CC1,-2.9,-2,-1.7,i,-8,-20,-0.7

Continued:
SMILES,AF4-AF9 inh,ALR H2O2 inh,RanGTP-Impb inh,Beta apoptosis,T cruzi inh,Calb FLC,FGF22 binding,Ecoli rRNA inh,Ecoli rRNA inh OD600,Ecoli rRNA inh RFP
CCc1ccc2oc(-c3cc(N)ccc3O)nc2c1,nt,39,-1.8,-8,5,-12,nt,nt,nt,nt
O/N=C(/c1ccccc1)c1cc2cc(Br)cc(Br)c2o1,-3.4,-2,-2.2,0,1,0,i,-23*,-11*,-2.3*
CCOC(=O)c1ccc(N2C(=O)CC(NNC(=O)c3ccc(Br)s3)C2=O)cc1 (centres undefined),-3.6,2,-1.4,-8,-15,57,nt,16,20,6.6
O=S1(=O)CC(O)C(Nc2ccccc2)C1 (centres undefined),nt,33,-3.4,0,10,-2,nt,nt,nt,nt
Cc1cccc(N(CC(=O)NC(C)(C)C)C(=O)CS(=O)CC(=O)Nc2ccc3c(c2)OCO3)c1 (centres undefined),-0.3,-1,1.2,0,-5,5,i,-5,-11,-3.6
O=C(NCc1cccs1)c1cc2c(s1)CCCC2,nt,-7,-0.6,3,-5,5,nt,nt,nt,nt
O=[N+]([O-])c1cc(C(F)(F)F)ccc1NCCCCNS(=O)(=O)c1ccc(Cl)cc1,-15,-2,?,88*,-1,6,i,-13,-5,0.7
CS(=O)(=O)NCc1nnc(SCc2ccccc2C(F)(F)F)o1,nt,1,0.9,-6,-5,-9,nt,nt,nt,nt
N#Cc1c2c(c(NCCOCCO)n3c1nc1ccccc13)CCCC2,-7.2,-9,-3.6,4,38,29,i,8,-2,26
CC(=O)Nc1cccc(-n2nnc(SCC(=O)c3ccccc3)n2)c1,1.5,20,4.6,6,-16,5,i,-36*,-8.4*,-0.7*
O=C(NCCCOc1cccc(CN2CCCCC2)c1)c1ccc(Cl)c(Cl)c1,nt,-3,1.2,9,39,-10,nt,nt,nt,nt
Cc1csc2ncc(C(=O)Nc3ccccc3F)c(=O)n12,-0.8,0,0.0,-6,-5,-9,i,7,13,-0.5
Cc1ccc(CNC(=O)CCc2nnc3ccc(NCCCN4CCCC4=O)nn23)cc1,-2.9,9,-3.4,-5,1,0,i,4,-15,0.0
Cc1ccc(S(=O)(=O)N2CCN(S(=O)(=O)N3CCC(C)CC3)CC2)cc1C,-4.5,-3,1.0,5,0,-9,i,1,4,-0.4
CC(C)C(=O)Nc1cccc(NC(=O)c2cccnc2)c1,nt,-10,-1.6,-4,-6,-5,nt,nt,nt,nt
COc1ccc(Cl)cc1NS(=O)(=O)c1ccc(OC)c(OC)c1,nt,-2,-1.6,-6,-1,5,nt,-4,-4,-0.1
O=C1CC(NN2CCCCC2)C(=O)N1c1ccccc1 (centres undefined),1.3,5,2.2,-1,-4,-2,i,0,10,2.5
O=C(CCN1C(=O)c2ccccc2C1=O)Nc1ccc(-c2nc3ccccc3o2)cc1,nt,-3,-0.4,1,6,2,nt,nt,nt,nt
COc1ccc(C(=O)NC(C)Cn2nc(C)cc2C)cc1OC1CCN(C(C)=O)CC1 (centres undefined),-0.4,-2,4.1,-8,-3,-12,i,17,15,3.6
O=[N+]([O-])c1ccc(-c2ccc(S(=O)(=O)NCCN3CCCC3)cc2)cc1,3.8,-11,-1.4,nt,8,-19,i,5,6,-3.5
Cc1nnc(NC(=O)CSc2nccn2Cc2ccccc2)s1,-0.5,-16,3.2,-2,-8,19,i,0,6,-0.4

Bioassay records as filed in PubChem BioAssay.

These rows are one share of the data; count on the stated rates, not on these rows.
